# Assay outcomes from PubChem.
# miR-21 reporter: qHTS Assay for Modulators of miRNAs and/orActivators of miR-21; HeLa miR-21 FLuc reporter, luciferase, 48 h; Potency, µM (titrated, usually from 38.3 µM), for inactives: at the top dose reporter change, positive = more light; 340,000 tested, under 10 active; active = well fitted rising curve with a large enough effect; inconclusive = small, poorly fitted or top-dose-only effect; inactive = no such curve, though single readings can be large or run the other way;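 further: % of control where 0% means no effect; miR-21 action dims this reporter so a rising signal means less miR-21 action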
#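 Luminescence from a firefly luciferase reporter carrying a miR-21 binding site downstream, stably expressed under a CMV promoter in HeLa cells that make miR-21 endogenously, reports miRNA modulation after 48 h compound exposure up to approximately 40uM final.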
# Rango-impB inh: qHTS Assay for Inhibitors of Rango (Ran-regulated importin-beta cargo) - Importin beta complex formation; Importin subunit beta-1 (Homo sapiens), Q14974; Rango CFP/YFP FRET sensor + importin beta, 45 min; Potency, µM (doses to about 92.2 µM), inactives show at the highest dose inhibition of complex formation; hit rate 0.031% among 340,000; AID 540263, 2011; active = rising FRET ratio curve, often small or poorly fitted; inconclusive = mostly compound fluorescence or quenching in the first reads; inactive = flat curves in all reads;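 further: potency means the concentration at half of the fitted maximal effect; 0% = DMSO wells and 100% = buffer wells lacking importin beta; nearly all actives have a fitted effect of over 15% in size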
#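 Inhibition scored from the CFP 486 nm/YFP 530 nm FRET ratio 45 min after adding 0.125 microM importin beta to 50 nM Rango biosensor preincubated 5 min with compound (room temperature, PBS with DTT, Tween-20, BSA). No-importin wells as positive control.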
# Rango release inh: qHTS Assay for Inhibitors of RanGTP induced Rango (Ran-regulated importin-beta cargo) - Importin beta complex dissociation; Snurportin-1 (Homo sapiens) + GTP-binding nuclear protein Ran (Homo sapiens) + Importin …; Biochemical FRET Rango-importin beta, RanGTP-induced dissociation; Potency, µM (titrated, usually from 46.1 µM), without a hit: top-dose activity change, negative = inhibition; hit rate 0.071% among 340,000; AID 540253, 2011; active means falling FRET ratio curve, often poorly fitted, with flat reads before Ran was added; inconclusive means other falling curves, or compound fluorescence or quenching; inactive means flat or rising ratio curve;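 further: potency means the concentration at half of the fitted maximal effect; % of control where 0% means no effect; nearly all actives have a fitted effect of over 45% in size; -100% = wells without RanGTP and RCC1; the record marks most hits as doubtful in a second field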
#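 Two FRET readings bracket the reaction: one 5 min after compound meets Rango–importin beta, another 45 min after RanGTP-RCC1 (0.6 uM Ran, 0.2 uM RCC1, 2 mM GTP) is added. Only the second defines inhibition.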
# GLA inh pH 4.5: qHTS Assay for Inhibitors of Human alpha-Galactosidase at pH 4.5; Alpha-galactosidase A (Homo sapiens), P06280; purified enzyme, 4-MU-alpha-Gal fluorescence, pH 4.5; activity change, negative = inhibition, % at 105 µM; 230,000 tested, under 10 active; AID 1467, 2008; inconclusive = small, poorly fitted or top-dose-only inhibition, or a rising curve; inactive = flat fitted curve, though single readings scatter; no compound was filed as active;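 further: 0% = full activity with enzyme and -100% = basal without enzyme; dose as in the result columns while the protocol names 77 µM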
# Target sequence (P06280 whole entry, looked up): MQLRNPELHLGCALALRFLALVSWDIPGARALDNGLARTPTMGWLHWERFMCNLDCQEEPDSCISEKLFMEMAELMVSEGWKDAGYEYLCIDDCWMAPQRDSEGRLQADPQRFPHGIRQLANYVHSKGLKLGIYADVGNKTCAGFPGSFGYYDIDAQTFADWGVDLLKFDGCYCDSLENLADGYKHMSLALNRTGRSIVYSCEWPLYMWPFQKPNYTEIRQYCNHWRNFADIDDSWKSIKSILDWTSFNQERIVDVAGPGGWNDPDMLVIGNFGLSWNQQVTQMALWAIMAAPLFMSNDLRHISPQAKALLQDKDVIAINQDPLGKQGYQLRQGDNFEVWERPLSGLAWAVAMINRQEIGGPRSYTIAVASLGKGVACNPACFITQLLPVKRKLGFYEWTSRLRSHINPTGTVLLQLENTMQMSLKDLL
# Active calls of the source: *; ? = inconclusive; · = not tested or not shown; & = joins results of further samples.
SMILES,miR-21 reporter,Rango-impB inh,Rango release inh,GLA inh pH 4.5
CCCOC(=O)c1ccc(NC(=O)c2cnccn2)cc1,-49%,0.8%,-12%,6
O=C(NCc1ccc(Cl)cc1)c1cc(=O)[nH]c2ccc(S(=O)(=O)N3CCOCC3)cc12,-4%,3.2%,-14%,1
COCCNC(=S)N/N=C(\C)c1ccc(O)cc1,-7%,-1.8%,16%,7
CCOc1[nH]n(-c2ccc(Cl)cc2)c(=O)c1C=NCc1cccnc1,1%,-1.6%,-21%,6
CCC(=O)N1CCc2cc(S(=O)(=O)NCCC(=O)N3CCN(c4cccc(C)c4)C(C)C3)ccc21 (centres undefined),15%,8.3%,-10%,·
O=C(Cn1nc2ccccc2n1)N/N=C/c1ccc(F)cc1,-28%,2.1%,-5%,4
O=C(O)C1CC=CCC1C(=O)Nc1cccc(F)c1 (centres undefined),-10%,-3.2%,-6%,2
CC12CN3CCN(CC(C3)/C1=N\NC(=O)Nc1cccc(Cl)c1)C2,-22%,4.8%,9%,-8
CC12CC3CC(C)(C1)CC(C(=O)NC(=S)N1CCCCC1)(C3)C2,-10%,3.9%,4%,0
Cc1cccc(NC(=S)NNC(=O)Cc2ccccc2)c1,0%,-1.2%,6%,5
O=C(O)c1ccc(CSc2nc(-c3ccc(Cl)cc3)cc(C(F)(F)F)n2)cc1,0%,-0.1%,-10%,9
COc1ccc(OC)c(CN2CCC(CNC(=O)Nc3cccc(Cl)c3)CC2)c1,4%,-2.9%,-1%,-12
Cc1ccccc1NC(=S)/C(=C(\[O-])c1cc(C)n(Cc2ccccc2Cl)c1C)[n+]1ccccc1,-10%,?,-10%,-4
Cc1ccc(NC(=O)COc2ccc(N(C)C(=O)C(C)(C)C)cc2)cc1S(=O)(=O)N1CCCCC1,·,1.5%,-16%,·
CC1CCCN(C2=C(Cl)C(=O)N(c3cccc(Cl)c3)C2=O)C1 (centres undefined),5%,?,?,-8
COc1ccc(C(=O)C(=O)c2ccc(OCCO)cc2)cc1,·,2.7%,15%,·
CCOC(=O)c1cccc(NC(=O)CSc2nc(N)cc(N)n2)c1,1%,-1.8%,-1%,5
Cc1ccc(S(=O)(=O)N(C)c2ccc(OCC(=O)NC3=NCCS3)cc2)cc1,1%,3.7%,-13%,7
COCCCNC(=O)C1CCN(c2ccc(N3CCOCC3)nn2)CC1,0%,?,-8%,10
COCCCNC(=O)C[C@H]1C[C@H](C(=O)N2CCOCC2)[C@@]2(C)c3[nH]c4cc(-c5ccco5)ccc4c3CCN2C1=O,·,?,?,·
Cc1cccc(NC(=O)CSc2nnc(-c3ccccc3Br)o2)c1C,-9%,-0.6%,-1%,7
CC1(C)CC(=O)C(C(=O)C2CCN(S(=O)(=O)c3ccccc3)CC2)C(=O)C1,4%,3.0%,-4%,-2
CCCCC1(C)OC(=O)C(=Cc2ccc(-c3ccc(Cl)c(C(=O)O)c3)o2)C(=O)O1 (centres undefined),-8%,?,7%,-21
Cc1nc2c(c(=O)c3ccccc3n2C)c(=O)n1-c1ccccc1,-12%,-0.2%,-22%,-4
CC(CNC(=O)CN1C(=O)c2cccnc2Oc2ccc(Cl)cc21)c1ccccc1 (centres undefined),3%&-2%,-3.4%,0%,·
c1ccc(N/N=C2\CCCc3ccccc32)nc1,-9%,0.2%,3%,-29
COc1ccc(NC(=O)COc2ccc(Br)cc2)c(OC)c1,1%,-0.1%,10%,·
Oc1ccc(/C=N/N=C/c2ccc(O)c(O)c2)cc1O,-24%,?,-16%,·
CN(Cc1c(C(=O)N/N=C/c2cccc(O)c2)nnn1-c1nonc1N)C1CCCCC1,2%,-0.1%,17%,·
CCOC(=O)c1c(C)oc2ccc(OCC(=O)N(CC)CC)cc12,-17%,-0.5%,8%,0
COc1ccccc1NC(=O)C12CCC(C)(C(=O)C1)C2(C)C (centres undefined),0%,0.5%,2%,4
NC(=O)c1ccc(NC(=O)CCNC(=O)c2ccco2)cc1,-1%,-4.7%,7%,3
c1ccc(-c2nc(NCCCn3ccnc3)c3oc4ccccc4c3n2)cc1,13%,1.2%,2%,-4
O=C(Cn1cccc1C(=O)c1ccccc1)NCCCc1ccccc1,0%,0.8%,2%,·
Cc1ccc(NC(=O)c2cc(NC(=O)c3ccco3)ccc2N2CCCCC2)cc1,-2%,0.5%,1%,0
CC/C(=C/c1sc2ccc(C)cc2[n+]1CCO)SC,0%,?,-12%,-8
CCCCc1nc(NCCNC(=O)c2ccco2)c(C#N)c2c1CSC(C)(C)C2,1%,-0.2%,8%,11
N#Cc1ccccc1COC(=O)c1ccc(Br)o1,0%,-0.7%,-2%,·
Brc1ccc(OCCCCN2CCCCC2)cc1,-2%,1.0%,2%,·
Clc1cc(Cl)cc(CSc2nnc(-c3sccc3-n3cccc3)o2)c1,-3%,-0.7%,2%,-2

# Single records (already shown). Values in the order: miR-21 reporter, Rango-impB inh, Rango release inh, GLA inh pH 4.5
# CN(Cc1c(C(=O)N/N=C/c2cccc(O)c2)nnn1-c1nonc1N)C1CCCCC1 in the list: 2%, -0.1%, 17%, ·
# Brc1ccc(OCCCCN2CCCCC2)cc1 in the list: -2%, 1.0%, 2%, ·

# Other results follow:
SMILES,miR-21 reporter,Rango-impB inh,Rango release inh,GLA inh pH 4.5
CCOC(=O)CN1CC23C=CC(O2)C(C(=O)Nc2ccc(F)c(C)c2)C3C1=O (centres undefined),2%,-0.4%,16%,-6
CC1(C)CC(NC(=O)COc2ccc(Cl)cc2Cl)CC(C)(C)N1,-3%,-3.9%,-21%,·
CC1(C)C2CCC1(CS(=O)(=O)Nc1ccc(S(=O)(=O)N3CCCCC3)cc1)C(=O)C2 (centres undefined),0%,-1.7%,1%,-3
CCCS(=O)(=O)N1CCCC(C(=O)NC2CCCC(C)C2C)C1 (centres undefined),-2%,-3.6%,11%,8
Cc1nnc(SCC(=O)Nc2sc3c(c2C(N)=O)CCC(C)C3)[nH]c1=O (centres undefined),·,-1.6%,-12%,·
COc1ccc(CN(C)C(=S)Nc2ccc(OC(F)F)cc2)cc1,3%,-3.0%,1%,-8
CC(C)CN(C(=O)C1CSC2(C)CCC(=O)N12)c1c(N)n(Cc2ccccc2)c(=O)[nH]c1=O (centres undefined),3%,-3.1%,-2%,·
O=[N+]([O-])/C(C(=C(Cl)Cl)N1CCN(Cc2ccccc2)CC1)=C1\NCCN1Cc1ccc(Cl)nc1,7%,2.6%,7%,-23
O=C(Nc1ccc(N2CCOCC2)cc1)c1cc2c(s1)CCCCC2,-2%,-0.1%,0%,6
COc1cc(C(=O)OCCCc2cc3ccccc3c(=O)o2)cc(OC)c1OC,·,-2.6%,9%,·
CC(NC(=O)/C(C#N)=C/c1cccs1)c1ccccc1 (centres undefined),-11%,5.8%,0%,0
C/C(=N\NC(=O)c1nnn(-c2nonc2N)c1-c1cccs1)c1cccc(O)c1,6%,-4.3%,5%,·
O=C(COC(=O)c1cc(S(=O)(=O)N2CCOCC2)c(Cl)cc1Cl)NC1CC1,·,-0.1%,2%,·
Cc1ccc(Cl)cc1NC(=O)CCn1cccc1,0%,-2.2%,18%,0
O=C(N/N=C/C(Cl)=C/c1ccc([N+](=O)[O-])cc1)C(=O)Nc1ccc(C(=O)O)cc1,-2%,3.3%,-9%,-19
CC(O)/C=C/C1OC(=O)CC1Nc1ccc(C=O)cc1 (centres undefined),1%,-1.2%,4%,2
O=C(Nc1ccc(Oc2nnc(-c3ccccc3)c3ccccc23)cc1)c1ccccc1,-10%,3.1%,5%,-8
CC(C)C(NC(=O)c1ccc(C(C)(C)C)cc1)C(=O)Nc1cccc(S(N)(=O)=O)c1 (centres undefined),-6%,0.1%,-7%,-2
CN(C)CCCOC(=O)COc1ccc(C(C)(C)C)cc1,-9%,0.5%,-6%,-1
CN(C)CCN(Cc1cc2cc3c(cc2[nH]c1=O)OCO3)C(=S)NCc1ccco1,-1%,0.7%,-14%,6
O=C(Cn1cnc2scc(-c3ccc(Cl)cc3)c2c1=O)N1CCOCC1,0%,-2.9%,-20%,3
COc1ccc(CCNC(=O)Nc2cccc([N+](=O)[O-])c2)cc1OC,-3%,?,10%,3
O=C(NC(=S)NCCOCc1ccc(Cl)cc1)c1cccnc1,3%,2.2%,0%,5
FC(F)(F)c1nnc(-c2ccccc2)nc1N1CCCC1,-2%,0.1%,7%,0
CC(C)(C)OC(=O)N1CCC(C(=O)N2CCC[C@H]2C(=O)O)CC1,-4%,-2.4%,-9%,-3
CC1(C)Nc2cccc3cccc(c23)N1,·,4.8%,-29%,·
CC(C)N(C(=O)CSc1nc2ccccc2c(=O)[nH]1)C(C)C,3%,-0.7%,13%,9
C=C(NC(=O)C(=C)NC(=O)c1csc(C2=NC3c4csc(n4)C4NC(=O)c5csc(n5)C(C(C)(O)C(C)O)NC(=O)C5CSC(=N5)/C(=C/C)NC(=O)C(C(C)O)NC(=O)c5csc(n5)C3(CC2)NC(=O)C(C)NC(=O)C(=C)NC(=O)C(=C)NC(=O)C(C(C)C)NC2C=Cc3c(C(C)O)cc(nc3C2O)C(=O)OC4C)n1)C(N)=O (centres undefined),·,-2.8%,-23%,·
N#Cc1ccc(C(=O)NC(=S)N2CCOCC2)cc1,·,0.1%,9%,·
O=C(OCc1ccccc1)/C(=C/c1cccc(Br)c1)NC(=O)c1ccco1,11%,?,12%,·
O=C(NCC(=O)N(c1ccc(F)cc1)C(C(=O)NC1CCCC1)c1cccnc1)c1cccs1 (centres undefined),1%,10%,-24%,5
O=C(c1ccccc1)c1ccc(C(=O)N2CCOCC2)cc1,-2%,1.0%,6%,-9
Cc1ccc(OCc2nnc(SCC(=O)O)n2N)cc1,-2%,-2.7%,-10%,-5
COc1ccccc1NC(=O)c1oc2ccccc2c1NC(=O)C1CC1,3%,-0.9%,1%,·
CCOc1ccccc1NC(=O)c1ccc2c(c1)C(=O)N(C(C)(C)C)C2=O,3%,4.2%,23%,·
O=C(CN(Cc1ccccc1F)C(=O)c1csnn1)NC1CCCCC1,10%,6.6%,4%,·
CCCC(=O)c1ccc(N2CCN(S(=O)(=O)c3ccccc3)CC2)c(F)c1,-1%,-0.8%,2%,-4
CN(CC(=O)Nc1ccc(N2CCOCC2)cc1)C(=O)Cc1ccccc1,·,-0.4%,1%,·
Cc1ccc(-c2cn(S(=O)(=O)c3cccc([N+](=O)[O-])c3)nc2N)cc1,-8%,-0.6%,21%,-11
CN(C(=O)COc1ccccc1)c1nnc(C23CC4CC(CC(C4)C2)C3)s1,3%,2.0%,-8%,16

# Reformatted with each value named: three of the compounds above.
smiles: Oc1ccc(/C=N/N=C/c2ccc(O)c(O)c2)cc1O
- miR-21 reporter = -24%
- Rango-impB inh = ?
- Rango release inh = -16%
- GLA inh pH 4.5 = ·
smiles: CN(Cc1c(C(=O)N/N=C/c2cccc(O)c2)nnn1-c1nonc1N)C1CCCCC1
- miR-21 reporter = 2%
- Rango-impB inh = -0.1%
- Rango release inh = 17%
- GLA inh pH 4.5 = ·
smiles: CCOC(=O)c1c(C)oc2ccc(OCC(=O)N(CC)CC)cc12
- miR-21 reporter = -17%
- Rango-impB inh = -0.5%
- Rango release inh = 8%
- GLA inh pH 4.5 = 0

# Other results
SMILES,miR-21 reporter,Rango-impB inh,Rango release inh,GLA inh pH 4.5
O=C(CCC(=O)NNC(=O)COc1ccccc1)NCc1ccccc1,-4%,-5.2%,24%,-3
C(=C\c1ccccc1)/C=N/Nc1nc(N2CCCCC2)nc(N2CCCCC2)n1,-3%,-0.7%,-3%,3
Cc1ccc(-c2cccc(C3CC=CC4C3C(=O)N(Cc3ccccc3)C4c3cc(C)ccc3F)c2)cc1 (centres undefined),5%,0.0%,-22%,9
COc1ccc(C(=O)CC(=O)C(=O)Nc2cccc(F)c2)cc1,-15%,1.0%,-10%,·
O=C(NN=C1CCCCCCC1)c1ccc(F)cc1,-24%,-4.9%,-4%,4

# Not all compounds are listed; rates above refer to the full screens.
